Source: PubChem BioAssay (National Center for Advancing Translational Sciences (NCATS))
miR-21 FLuc = raises the signal of a miR-21 reporter. Potency, µM (series often up to 38.3 µM), without a hit: at the top dose reporter change, positive = more light. HeLa miR-21 FLuc reporter, luciferase, 48 h. 340,000 tested, under 10 active. AID 2288; active = well fitted rising curve with a large enough effect; inconclusive = small, poorly fitted or top-dose-only effect; inactive = no such curve, though single readings can be large or run the other way;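 also: % of control where 0% means no effect; miR-21 action dims this reporter so a rising signal means less miR-21 action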
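Using DMEM plus 10% FBS, HeLa miR-21-FLuc cells are incubated with test compounds (final up to about 40uM) for 48 hours; firefly luciferase signal is then imaged following reagent-mediated lysis.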
GLA inh pH 4.5 = alpha-galactosidase A (human) inhibition, pH 4.5; P06280; purified enzyme, 4-MU-alpha-Gal fluorescence, pH 4.5; 230,000 tested, under 10 active; activity change, negative = inhibition, % at 105 µM; inconclusive = small, poorly fitted or top-dose-only inhibition, or a rising curve; inactive = flat fitted curve, though single readings scatter; no compound was filed as active;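 also: 0% = full activity with enzyme and -100% = basal without enzyme; dose as in the result columns while the protocol names 77 µM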
Target sequence (P06280 whole entry, looked up): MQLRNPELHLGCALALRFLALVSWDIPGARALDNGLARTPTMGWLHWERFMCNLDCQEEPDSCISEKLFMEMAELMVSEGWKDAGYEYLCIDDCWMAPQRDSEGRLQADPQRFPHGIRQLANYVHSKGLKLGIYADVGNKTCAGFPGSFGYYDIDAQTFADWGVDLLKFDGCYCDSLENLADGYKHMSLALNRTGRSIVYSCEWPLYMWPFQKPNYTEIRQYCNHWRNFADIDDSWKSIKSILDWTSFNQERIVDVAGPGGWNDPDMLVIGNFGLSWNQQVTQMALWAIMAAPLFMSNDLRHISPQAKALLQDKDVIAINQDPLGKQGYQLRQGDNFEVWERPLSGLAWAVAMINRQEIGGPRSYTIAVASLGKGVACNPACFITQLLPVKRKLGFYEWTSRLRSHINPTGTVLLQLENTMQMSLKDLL
Rango dissoc inh = inhibition of RanGTP-driven Rango-importin beta dissociation. AID 540253. actives 0.071% (n = 340,000). Potency, µM (titrated, usually from 46.1 µM), for inactives: top-dose activity change, negative = inhibition. Biochemical FRET Rango-importin beta, RanGTP-induced dissociation. O95149+P62826; active means falling FRET ratio curve, often poorly fitted, with flat reads before Ran was added; inconclusive means other falling curves, or compound fluorescence or quenching; inactive means flat or rising ratio curve;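 also: potency is read from the fitted curve at half-maximal effect; % of control where 0% means no effect; nearly all actives have a fitted effect of over 45% in size; -100% = wells without RanGTP and RCC1; the record marks most hits as doubtful in a second field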
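FRET read at 45 min, room temperature: inhibitors block the CFP/YFP signal rise when RanGTP (0.6 uM Ran, 2 mM GTP, 0.2 uM RCC1) frees Rango (0.1 uM) from importin beta (0.25 uM). Pre-read after 5 min compound exposure flags interference.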
Rango-impB inh = Rango-importin beta binding inhibition. Q14974. Potency, µM (highest dose often 92.2 µM), inactives show top-dose inhibition of complex formation. actives 0.031% (n = 340,000). Rango CFP/YFP FRET sensor + importin beta, 45 min. AID 540263; active = rising FRET ratio curve, often small or poorly fitted; inconclusive = mostly compound fluorescence or quenching in the first reads; inactive = flat curves in all reads;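 also: potency is read from the fitted curve at half-maximal effect; 0% = DMSO wells and 100% = buffer wells lacking importin beta; nearly all actives have a fitted effect of over 15% in size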
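Inhibition scored from the CFP 486 nm/YFP 530 nm FRET ratio 45 min after adding 0.125 microM importin beta to 50 nM Rango biosensor preincubated 5 min with compound (room temperature, PBS with DTT, Tween-20, BSA). No-importin wells as positive control.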
Starred values were filed as active, the others as inactive; ? = inconclusive; / = not tested or not shown; & = joins results of further samples. A portion of the library. The share of hits here may be higher or lower than overall.

SMILES	miR-21 FLuc	GLA inh pH 4.5	Rango dissoc inh	Rango-impB inh
Cc1ccc(N2C(=O)Nc3ccc(Br)cc3C2(O)C(=O)NCCN(C)C)cc1C (stereo unspecified)	-3%	/	1%	1.9%
C=CCN1c2ccccc2C(=O)CS1(=O)=O	/	/	1%	0.0%
COc1ccc(-c2cc(=O)oc3cc(OCC(=O)NCC(O)c4ccccc4)ccc23)cc1 (stereo unspecified)	-2%	/	-16%	3.2%
O=C(CSc1nnc(-c2ccc(O)cc2)o1)Nc1cccc(O)c1	-25%	/	-1%	0.9%
Fc1ccccc1CSc1ncn[nH]1	-20%	-4	-1%	3.1%
O=C(O)c1ccnc(Cl)c1	-2%	7	10%	0.1%
Cc1cc(C(=O)Oc2ccccc2C(=O)O)c(C)o1	-1%	1	-11%	-3.4%
COC(=O)CCCCCN1C(=O)NC(c2ccccc2)C(C(=O)OCc2ccccc2)=C1C (stereo unspecified)	2%	-9&-7	-9%	0.9%
O=C(NCCc1nccs1)C1CCC(=O)N(Cc2cccc(C(F)(F)F)c2)C1 (stereo unspecified)	0%	/	1%	0.4%
CCCC(=O)N1CCN(c2ccc(NC(=O)c3ccco3)cc2)CC1	-19%	-5	10%	-3.5%
O=C(COC(=O)COc1ccccc1)Nc1ccc2c(c1)OCCO2	/	/	12%	-0.1%
COC(=O)c1cc(CNC(=O)c2ccc(O)c(Cl)c2)ccc1OC	-2%	-7	5%	-2.1%
O=[N+]([O-])c1ccccc1NCc1c(O)ccc2ccccc12	0%	0	1%	0.7%
CN(c1ccc(C(=O)N2CCOCC2)cc1[N+](=O)[O-])C1CCCCC1	-28%	-11	-6%	0.8%
CCc1c(C)c2ccc(OC3CCCCC3=O)cc2oc1=O (stereo unspecified)	-18%	/	-6%	-0.2%
CCn1cc(C(=O)NCc2ccc(C)o2)c2cc(OC)c(OC)cc2c1=O	-3%	-6	2%	-1.7%
O=C(C[n+]1ccccc1)Nc1cc(C(F)(F)F)ccc1Cl	-3%	2	0%	-2.0%
CC(C)CC1CCCC12NC(=O)NC2=O (stereo unspecified)	/	/	15%	-0.7%
Cc1cc(-c2n[nH]c(=S)n2/N=C/c2sccc2C)n[nH]1	-6%	-12	3%	-0.2%
COc1ccc(C)cc1NC(=O)c1cnc2n(c1=O)CCS2	-13%	2	-17%	-1.8%
COc1ccc(C2c3c(oc4c(C)cc(C)cc4c3=O)C(=O)N2Cc2cccnc2)cc1OC (stereo unspecified)	1%	-2	/	/
COc1ccc(N(C)C(=O)Cc2c(C(=O)O)n(C)c3ccccc23)c(OC)c1	-2%	/	2%	1.1%
CC1CC(C)CN(CC(=O)N2CCc3[nH]c4ccccc4c3C2)C1 (stereo unspecified)	-7%	-7	?	?
CCN(CC(=O)Nc1ccc(NC(C)=O)cc1)C(=O)c1ccc(N2C(=O)c3ccccc3C2=O)cc1	/	/	0%	-1.3%
CCOc1ccc(NC(=O)CNc2cccc(S(=O)(=O)N3CCCCCC3)c2)cc1OCC	/	/	6%	-2.2%
O=C(OCc1cccc([N+](=O)[O-])c1)c1cc2ccccc2oc1=O	-12%	/	?	-1.1%
Cn1ccc2cc(OCc3ccccc3)ccc21	/	/	14%	?
Nc1cc(=O)[nH]c(SCC(=O)N2CCN(S(=O)(=O)c3ccc4ccccc4c3)CC2)n1	0%	-4	4%	-1.6%
CC(=O)Oc1cc(C(C)C)c(OCCN(C)C)cc1C	-1%	-2&-3	-15%	-1.8%
C=CCN=C1S/C(=C\N(C)C)C(=O)N1S(=O)(=O)c1ccc(C)cc1	/	/	20%	-0.1%
Cc1ccc(CCNC(=O)C2CCN(c3nn4c(=O)cc(C)nc4s3)CC2)cc1	-16%	5	2%	0.1%
O=C(OCC(=O)c1ccc[nH]1)c1ccc(F)c(S(=O)(=O)N2CCOCC2)c1	/	/	-21%	-0.2%
Cc1ccc(C)c(NC(=O)C(Sc2ncnc3ccccc23)c2ccccc2)c1 (stereo unspecified)	-1%	0	60%	-3.1%
CC(C)C(OC(=O)c1ccc(Cl)nc1)C(=O)NC1CCCCC1 (stereo unspecified)	-1%	/	1%	2.9%
COC(=O)c1nnn(-c2nonc2N)c1-c1cccs1	0%	6	-8%	6.9%
Cn1c(N)c(C(=O)COC(=O)C2=COCCO2)c(=O)n(C)c1=O	2%	1	6%	-1.5%
O=C(NCc1ccc(OC(F)(F)F)cc1)C1CC(c2cccc(F)c2)=NO1 (stereo unspecified)	4%	-1	8%	-0.8%
COc1ccc(-c2nn(-c3ccccc3)cc2C(=O)NC(=S)NNC(=O)c2ccncc2)cc1	23%	-7	3%	0.9%
CCN(C[C@H]1N[C@@](Cc2ccccc2)(C(=O)OC)[C@H]2C(=O)N(Cc3ccccc3)C(=O)[C@@H]12)C(=O)Nc1ccc(C)cc1	/	/	12%	-0.6%
CCn1c(=S)sc2nc(C)sc21	/	/	5%	-2.0%

3 compounds from above, sorted by number of heavy atoms, smallest number first.
SMILES	miR-21 FLuc	GLA inh pH 4.5	Rango dissoc inh	Rango-impB inh
COC(=O)c1nnn(-c2nonc2N)c1-c1cccs1	0%	6	-8%	6.9%
O=C(OCc1cccc([N+](=O)[O-])c1)c1cc2ccccc2oc1=O	-12%	/	?	-1.1%
COc1ccc(-c2nn(-c3ccccc3)cc2C(=O)NC(=S)NNC(=O)c2ccncc2)cc1	23%	-7	3%	0.9%

Going on with the list.
SMILES	miR-21 FLuc	GLA inh pH 4.5	Rango dissoc inh	Rango-impB inh
COc1cccc(C(=O)Nc2nnc(S(=O)(=O)Nc3cccc(C)c3)s2)c1	-28%	/	1%	4.7%
O=[N+]([O-])c1ccc(Oc2ccc(S(=O)(=O)Nc3ccccc3)cc2)cc1	5%	-1	-9%	-3.4%
CN(C)CCCN(Cc1cc2cc3c(cc2[nH]c1=O)OCO3)C(=S)NCc1ccco1	-3%	9	6%	-4.8%
O=[N+]([O-])c1nn(-c2ccc3c(c2)OCCO3)n(O)c1=Nc1ccc(Cl)cc1	-2%	-2	-3%	1.2%
Cc1cccc(NC(=O)CCS(=O)(=O)c2ccc(Br)cc2)c1	1%	/	1%	-2.6%
COC(=O)c1ccccc1NC(=O)Nc1cccnc1	-1%	3	5%	5.9%
CCOc1ccc(CNS(=O)(=O)c2cc(CN3C(=O)c4cccnc4C3=O)ccc2OC)cc1	-2%	/	-3%	0.8%
COc1cc(/C=C(/C(=O)c2cccs2)c2nc3ccccc3[nH]2)ccc1O	25%	-14	-25%	-0.5%
O=C(Nc1ccccc1)Oc1cccc2cccnc12	/	/	1%	-0.8%
CC(C)(C)CC(C)(C)c1ccc(O)c(CN2CCN(CCC#N)CC2)c1	16%	-13	1%	0.5%
CCn1c(=O)c2cc(S(=O)(=O)NCCOc3ccccc3)ccc2n(CC)c1=O	-4%	-2	14%	-5.6%
c1ccc(-c2ccc(-c3cnc4n3CCCCC4)cc2)cc1	-15%	-6	-14%	-0.6%
Cc1c(CCC(=O)N[C@@H](C)C(=O)O)c(=O)oc2cc3occ(-c4ccccc4)c3cc12	1%	/	2%	2.4%
Cc1cc(NC(=O)c2sc(Nc3cccc(C(F)(F)F)c3)nc2N)no1	7%	-6	-21%	?
Cn1c(=O)c2ccccc2n(Cc2ccccc2Cl)c1=O	-9%	/	19%	-3.0%
Nn1cc(-c2ccccc2)nc1SCC(=O)Nc1ccc(S(N)(=O)=O)cc1	-8%	-4	4%	0.1%
CC(C)(C)NC(=O)CC1C(=O)NCCN1Cc1c(F)cccc1Cl (stereo unspecified)	1%	6	-16%	-1.8%
Cn1cc(CNCCCn2ncc3ccccc32)c(-c2ccccc2F)n1	0%	-2	22%	4.1%
CCOC(=O)c1ccc(NC(=O)CNC(=O)C2CCCCC2)cc1	-3%	-14	4%	-0.8%
CC(Oc1cccc(Cl)c1)C(=O)Nc1ccccc1C(=O)N1CCCCC1 (stereo unspecified)	/	/	5%	-0.8%

Sorted by value in GLA inh pH 4.5 (highest first): three of the compounds above.
Molecule | miR-21 FLuc | GLA inh pH 4.5 | Rango dissoc inh | Rango-impB inh
O=[N+]([O-])c1nn(-c2ccc3c(c2)OCCO3)n(O)c1=Nc1ccc(Cl)cc1 | -2% | -2 | -3% | 1.2%
Nn1cc(-c2ccccc2)nc1SCC(=O)Nc1ccc(S(N)(=O)=O)cc1 | -8% | -4 | 4% | 0.1%
CC(C)(C)CC(C)(C)c1ccc(O)c(CN2CCN(CCC#N)CC2)c1 | 16% | -13 | 1% | 0.5%

(further entries)
SMILES	miR-21 FLuc	GLA inh pH 4.5	Rango dissoc inh	Rango-impB inh
CCOC(=O)C(Cc1ccc(OC)c([N+](=O)[O-])c1)NC(=O)CCC(=O)Nc1ccc(C)cc1 (stereo unspecified)	-10%	1	11%	-4.0%
COc1ccc(NC2CCCCC2NS(=O)(=O)c2ccc(C)cc2)cc1 (stereo unspecified)	4%	/	5%	-7.2%
CC(NC(=O)C12CC3CC(CC(C3)C1)C2)C(=O)N/N=C/C1=C(N2CCOCC2)C(=C\c2ccccc2)/CC1 (stereo unspecified)	-4%	-11	?	?
COc1ccc(C(=O)C23CC4CC(C2)CC(C(=O)c2ccc(OC)cc2)(C4)C3)cc1	1%	-2	13%	-0.4%
Cc1ccc2cc3cc(C(=O)NCCCN4CC(C)CC(C)C4)oc3nc2c1 (stereo unspecified)	-4%	/	14%	4.4%
COCCOC(=O)C1=C(C)NC2=C(C(=O)CC(c3cccs3)C2)C1c1ccsc1 (stereo unspecified)	4%	8	-2%	?
C=CCSc1nc2ccccc2[nH]1	-13%	-1	-5%	-2.9%
CCn1cc(C(=O)NCC(=O)NC(C)(C)CO)c(=O)c2cc3c(cc21)OCO3	0%	/	?	0.6%
CCN(CC)C(=O)C12C(=O)Oc3ccccc3C1C2(C)C(=O)c1ccc(F)cc1 (stereo unspecified)	-1%	0	0%	1.8%
O=S(=O)(c1ccc(=S)[nH]c1)N1CCN(Cc2ccccc2)CC1	/	/	1%	-4.6%
CCc1nnc(NC(=O)c2ccc(-c3cc(C(F)(F)F)ccc3Cl)o2)s1	-2%	11	2%	-3.8%
Cc1cccc(Nc2nnc(SCC(=O)NC(=O)CN3CCCC3=O)s2)c1	/	/	1%	-0.4%
CCOc1ccc(S(=O)(=O)N2CCN(S(=O)(=O)c3ccc(C(C)=O)cc3)CC2)cc1	6%	/	4%	3.9%
COc1ccccc1CCNC(=O)CC1C(=O)NCCN1CCCc1ccccc1 (stereo unspecified)	0%	/	28%	3.5%
O=C(CCn1c(=O)sc2ccccc21)NCCC1=CCCCC1	-10%	2	2%	1.4%
CC(CC(=O)Nc1cccnc1)c1ccccc1 (stereo unspecified)	-5%	2	6%	-4.3%
Cc1cccc(N2CCN(C(=O)CCC(=O)N3Cc4ccccc4Oc4ncccc43)CC2)c1C	15%	/	10%	9.7%
Nc1nc2ccc([N+](=O)[O-])cc2[nH]1	-1%	-15	19%	5.2%
Cc1cccc(NC(=O)NNC(=O)c2cc3ccccc3cc2O)c1C	-3%	-4	?	?
COc1ccccc1NC(=S)N1CCN(C(c2ccccc2)c2ccccc2)CC1	10%	-5	-8%	?
CC(C)(C)OC(=O)C[C@@H]1C/C=C\C[C@@H](CC(=O)N[C@H](CO)Cc2ccccc2)C(=O)NC[C@@H](c2ccccc2)OC1=O	/	/	4%	-0.8%
CCc1ccc(C2=CC(c3cc(Br)ccc3F)n3ncnc3N2)cc1 (stereo unspecified)	-10%	-7	?	?
C=CCc1ccccc1OCC(=O)N/N=C/c1ccccc1OCC	24%	-19	-13%	4.7%
CCOc1ccc(-c2nc(C#N)c(NCC(C)C)o2)cc1	-21%	4	-11%	-3.4%
COc1ccc(-n2cnnc2SCC(=O)Nc2cccc([N+](=O)[O-])c2)cc1	-4%	4	-4%	-2.9%
CCCC(O)(CCC)C(=O)NN(C(=O)CCl)c1cccc(C)c1	25%	6	2%	-0.2%
Cc1nc(-c2nnc(SCC(=O)Nc3ccc(C(F)(F)F)cc3)n2C)cs1	0%	1	-7%	1.6%
COc1c(Cl)cc(Cl)cc1C(=O)Nc1ccc(C(=O)O)cc1	-9%	6	-1%	-1.9%
O=C(Nc1ncn[nH]1)C(F)(F)C(F)F	0%	-5	17%	1.5%
